High-throughput results: PubChem, several laboratories
Env fusion inh = inhibitors of HIV-1 Env-driven cell-cell fusion, primary screen, HeLa-JRFL effector, CEM21 target cells, luciferase. inhibition, % at 12.3 µM. hit rate 1.1% among 360,000. AID 651610, 2012;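 active means mean replicate inhibition score of at least 50 and every replicate individually at or above 50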;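 further: 0% = plate neutral controls and 100% = maraviroc near 300 nM; one replicate is shown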
PABP FP inh = PABP poly(A) RNA binding inhibitors, primary screen, biochemical, fluorescence polarization, uHTS. Polyadenylate-binding protein 1 (Homo sapiens), P11940. inhibition, % at 35 µM. hit rate 1% among 290,000. AID 2014, 2009;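 active means 50% or more with normal probe brightness, or confirmed in later tests; about a fifth of its hits are not listed in these tables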;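 further: calls also rest on retests at 20 µM and on dose response follow-up; controls were probe without protein and protein plus probe with vehicle; some compounds called inactive have numbers as strong as hits; many hits fall short of the cut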
Target sequence (P11940 whole entry, looked up): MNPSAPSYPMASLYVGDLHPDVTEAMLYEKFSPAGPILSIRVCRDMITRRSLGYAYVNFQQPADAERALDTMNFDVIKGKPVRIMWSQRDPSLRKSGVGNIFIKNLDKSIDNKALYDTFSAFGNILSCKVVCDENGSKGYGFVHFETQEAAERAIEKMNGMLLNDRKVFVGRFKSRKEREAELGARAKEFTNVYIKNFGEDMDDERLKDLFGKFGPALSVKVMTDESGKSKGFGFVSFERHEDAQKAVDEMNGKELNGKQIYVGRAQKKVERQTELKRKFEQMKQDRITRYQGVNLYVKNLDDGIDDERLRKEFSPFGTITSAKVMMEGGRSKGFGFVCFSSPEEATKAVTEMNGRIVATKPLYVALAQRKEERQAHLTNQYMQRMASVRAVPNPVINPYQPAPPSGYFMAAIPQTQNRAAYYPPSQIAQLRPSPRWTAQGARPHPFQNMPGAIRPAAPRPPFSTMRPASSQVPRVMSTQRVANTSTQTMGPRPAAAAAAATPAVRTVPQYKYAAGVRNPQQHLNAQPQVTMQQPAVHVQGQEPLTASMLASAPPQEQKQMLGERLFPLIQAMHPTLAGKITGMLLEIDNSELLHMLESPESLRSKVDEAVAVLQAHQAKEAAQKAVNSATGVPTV
Rce1 inhib = yeast Rce1p protease inhibitors, primary screen, biochemical, fluorescence, cell-free homogeneous; CAAX prenyl protease 2 (Saccharomyces cerevisiae (strain ATCC 204508 / S288c)), Q03530; yeast membranes, quenched prenylated peptide cleavage fluorescence; calls only; hit rate 0.27% among 290,000; AID 2563, 2010;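 active means fall in fluorescence gain of 50% or more versus controls, with final raw signal at or below 3038400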;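 further: plate controls were neutral control wells for no effect and wells lacking membranes for full effect; tested at 10 µM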
CSC inhib = cancer stem cell viability inhibitors, primary screen, luminescence; cancer stem cell-like cells viability; inhibition, % at 7.5 µM; hit rate 1.1% among 300,000;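 active means mean at 75% or more and at least half the replicates too; tested in HMLE shEcad cells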;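 further: 0% = median of negative and 100% = median of positive control wells; the first replicate is given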
MT1-MMP act inh = blockers of MT1-MMP proenzyme processing, primary screen, HT1080 RFP-PRO-GFP cells, GFP/RFP fluorescence; Matrix metalloproteinase-14 (Homo sapiens), P50281; GFP/RFP ratio fluorescence, overnight; percent of plate control window, DMSO zero; GFP/RFP ratio change, % at 20 µM; hit rate 0.061% among 360,000; AID 651647, 2012;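 active means GFP/RFP ratio change of at least 30% with cell ATP level not reduced by more than half and red fluorescence within 50% of control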; further: strong numbers were not always called active
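Assay system – RFP-PRO-GFP reporter HT1080 cells · Compound dosing – single dose of 20 µM compound, 1% DMSO final · Incubation – overnight compound exposure at 37 °C · Measure – GFP/RFP fluorescence ratio · Benchmarks – DMSO wells and RFP-L50D-GFP cells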
eIF4H FP inh = human eIF4H binding inhibitors, primary screen, translation initiation inhibitor project, biochemical, uHTS, fluorescence polarization. Eukaryotic translation initiation factor 4H (Homo sapiens), Q15056. eIF4H fluorescence polarization binding assay. inhibition, % at 35 µM. hit rate 0.94% among 290,000;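 active means 50% or more with normal probe brightness, or confirmed in later tests; about a fifth of its hits are not listed in these tables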;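 further: calls also rest on retests at 20 µM and on dose response follow-up; 0% = protein and probe with vehicle and 100% = probe without protein; strong numbers were not always called active; many hits fall short of the cut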
UUG fidelity = modulators of yeast start codon fidelity, primary screen, whole organism, S. cerevisiae, single point, plate reader; S. cerevisiae UUG-firefly luciferase reporter, luminescence/redox ratio; activity score, % at 18.7 µM; hit rate 0.13% among 350,000; AID 602363, 2012;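 active means replicate mean at a twofold rise or more, about +100% in these data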;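 further: firefly luciferase made from a UUG start codon reports start codon fidelity; reporter light over untreated wells divided by growth signal over untreated wells; some hits fall short of that in this replicate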
eIF4H FP inh retest = second read-out of eIF4H FP inh, no call of its own (marks repeat the call); inhibition, %; compound at 20 µM; confirmation average;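 mean of two retest wells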
PABP FP inh retest = also measured in PABP FP inh; calls as there; inhibition, %; compound at 20 µM; confirmation repeats;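 mean of two retest wells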
MT1-MMP act inh RFP = also measured in MT1-MMP act inh; calls as there; RFP signal change, %; measured here: RFP expression control read;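 0 = vehicle wells; hits needed this value within 50% of zero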
Numbers without * were called inactive; i = inactive; x = not tested or not shown; & = joins results of further samples.

SMILES	Env fusion inh	PABP FP inh	Rce1 inhib	CSC inhib	MT1-MMP act inh	MT1-MMP act inh RFP	eIF4H FP inh	UUG fidelity	others
O=S(=O)(NCCSc1ccccc1)c1ccc(F)cc1	x	5	i	-12	-6	2	4	21
Cc1noc(C)c1NC(=O)N(C)C[C@@H]1OCc2cn(nn2)CCCC(=O)N([C@H](C)CO)C[C@H]1C	-17	x	x	x	0	2	x	10&5
CC1=NN(C(=O)c2ccccc2Cl)C(O)(c2ccccc2)C1 (stereo not given)	6	-3	i	-13	-2	0	0	-15
CCc1nc2c(OCCOc3ccc(F)cc3)cccn2c1N(C=O)Cc1ccc(OC)cc1	23	x	x	x	-5	0	x	-12
COc1ccc(CN2C[C@@H](CO)O[C@@H](n3cnc4c(NCc5ccco5)ncnc43)C2)cc1	8	x	x	x	-1	2	x	5
FC(F)(F)c1cccc(NC(=S)N2CCN(c3ccccc3)CC2)c1	36	75	i	9	-14	-8	-4	x	eIF4H FP inh retest=-9;PABP FP inh retest=-7
CCNc1nc2ccccc2[nH]1	48	-16	i	-5	-2	-5	0	-4
CCC(C(=O)n1cccc1C#N)c1ccccc1C (stereo not given)	6	x	x	-4	4	-1	x	-23
COc1cc(C(=O)Oc2ccc3c(c2)OCC3=O)cc(OC)c1OC	-15	2	i	-24	4	5	-8	-13
O=Cc1ccc(-c2ccc(Cl)cc2Cl)[nH]1	-43	2	i	-8	-3	2	-2	x
CN(C)C(=S)SCC(=O)NCc1ccc(F)cc1	2	-9	i	-5	3	7	-3	x
CCCCc1cc(=O)oc2cc(C)cc(OCC(=O)N3CCC(C(=O)O)CC3)c12	x	5	i	-8	4	0	0	-8
CCOC(=O)C1=C(c2ccccc2)NC(=O)NC1c1cc(OC)c(OC)cc1OC (stereo not given)	-94	1	i	-13	3	6	5	-5
COc1cccc(CC(=O)OCC(=O)N(C)CC(=O)Nc2ccc(F)cc2)c1	10	x	i	x	2	3	x	x
O=C(c1ccc(NS(=O)(=O)c2ccccc2)cc1)N1CCOCC1	-2	-4	i	-4	x	x	-5	-5
O=C(CSCCO)Nc1ccccc1	-48	2	i	-13	16	9	-1	-20
CCCCCNC(=O)c1ccc2c(=O)n(CC3CCCO3)c(=S)[nH]c2c1 (stereo not given)	0	-8	i	4	2	-6	-8	x
CC(C)NC(=O)CSc1nc2[nH]ncc2c(=O)[nH]1	-41	-1	i	0	-2	0	-1	x
Cn1c(=O)c2c(nc(N/N=C/c3cccs3)n2Cc2ccc(Br)cc2)n(C)c1=O	42	6	i	43	-12	-13	-7	-27
C[C@H](NC(=O)c1nc[nH]c1C(=O)N1CCNCC1)C(=O)OC(C)(C)C	-7	x	i	-12	-4	2	x	-17
CCOc1ccc(CCN2C(=O)c3cccnc3C2=O)cc1OCC	1	1	i	-2	3	-5	2	x
Cc1cc(C(=O)Nc2ccc(S(=O)(=O)Nc3onc(C)c3C)cc2)c(C)o1	-76	6	i	-7	-5	1	-9	-13
CC(OC(=O)c1cc(=O)[nH]c2ccccc12)C(=O)Nc1ccc(Cl)cn1 (stereo not given)	x	x	x	3	-6	0	x	-15
CCN(CC(=O)Nc1ccc(NC(C)=O)cc1)C(=O)C1CCCC1	5	x	x	x	-1	1	x	-1
Cc1ccc(C(=O)Oc2cc(C)[nH]c(=O)c2[N+](=O)[O-])cc1	5	0	i	-11	0	6	8	x
(next part)
SMILES	Env fusion inh	PABP FP inh	Rce1 inhib	CSC inhib	MT1-MMP act inh	MT1-MMP act inh RFP	eIF4H FP inh	UUG fidelity	others
O=C(NCCS(=O)(=O)N1CCN(c2cccc(Cl)c2)CC1)c1ccc2c(c1)OCO2	-10	x	i	6	-4	2	x	2
CCOc1ccc(NC(=O)Cn2nnc(C(=O)NCc3ccc4c(c3)OCO4)c2N)cc1	-17	8	i	-4	0	-2	0	-14
CC(C)(CO)CNC(=O)CC1C(=O)NCCN1CC(c1ccccc1)c1ccccc1 (stereo not given)	-4	7	i	-24	0	2	1	1
CCc1ccc(N(C(=O)c2snc(C(N)=O)c2N)C(C(=O)NC2CCCC2)c2ccco2)cc1 (stereo not given)	56*	11	i	3	-4	-3	-6	-4
CCOc1ccccc1N(C(=O)c1snc(C(N)=O)c1N)C(C(=O)NC1CCCC1)c1cccs1 (stereo not given)	36	3	i	3	-2	0	-5	-4
COc1ccc(/C=C(\NC(=O)c2ccccc2)C(=O)NCCN2CCOCC2)cc1OC	-89	-3	i	-3	2	0	-10	-14
O=C(CNCc1cccs1)Nc1ccc(S(=O)(=O)N2CCCCC2)cc1	26	4	i	-8	-2	-3	-12	x
O=C(CN(Cc1ccccc1)C(=O)CNS(=O)(=O)c1ccc(F)cc1)NCC1CCCO1 (stereo not given)	11	0	i	-7	4	3	-1	2
Cc1cccc(C(=O)NC(=S)Nc2cccc3nc(C)ccc23)c1	19	9	i	-4	-1	0	-5	-5
O=c1c(Cc2ccc(F)cc2)c(O)ccn1Cc1ccc(F)cc1	16	2	i	-3	-12	-7	-4	x
COc1ccc(-c2csc(NC(=O)CSc3ncn[nH]3)n2)cc1OC	-2	-6	i	5	5	-8	-2	-22
CCOC(=O)c1ccc(NC(=O)c2ccccc2[N+](=O)[O-])cc1	-8	18	i	-3	-1	2	-3	-27
Cc1n[nH]c(=O)c2c(NC(=O)CSc3nc4ccccc4c(=O)n3C(C)C)oc(C)c12	x	3	i	-6	-6	-1	-4	-14
CN(CC(=O)Nc1cccc(F)c1)C(=O)c1cccnc1Sc1ccc(Cl)cc1	16	x	i	-3	-2	-7	x	x
Cc1cc(C)[n+]2n1C(=O)C(c1ccccc1)=C2[O-]	-22&-17	-11&35	i	-11&-1	-3&-7	-1&-1	2&-11	-6
CC(=O)Nc1ccc(S(=O)(=O)NNC(=O)C2CCCCC2)cc1	-5	12	i	7	1	2	-7	-7
CCCCNC(=O)Nc1c(C(=O)OC)[nH]c2ccc(C)cc12	x	6	i	0	2	-4	-7	-13
COCCNC(=O)C(c1ccco1)N(C(=O)Cn1nnc2ccccc21)c1ccccc1C (stereo not given)	-9	12	i	-13	-3	-3	-15	22
Cc1cccc(NC(=O)NC2(C)CCS(=O)(=O)C2)c1 (stereo not given)	-10	0	i	0	0	2	2	-23
Cc1cccc(OCCC(=O)OCC(=O)N2c3ccccc3NC(=O)C2(C)C)c1	-9	x	x	x	3	3	x	-2
CN(Cc1cccnc1)C(=O)CNC(=O)c1ccc(Cl)cc1Cl	-14	4	i	4	-2	1	0	x
Cc1ccc(C)n1-c1ccc(-c2ccn[nH]2)cc1	-6	-6	i	3	-8	-2	-2	3
CCOC(=O)c1cn[nH]c1C(F)(F)F	-6	-1	i	-4	0	3	-4	2
COc1cc(C(=O)Nc2ccc(C)cn2)c([N+](=O)[O-])cc1OC	5	-11	i	7	-1	4	20	-7
COc1ccc(NC(=S)NNc2ccc([N+](=O)[O-])cc2S(=O)(=O)Nc2ccc(C)cc2C)cc1	x	5	i	12	-1	-31	-2	x

Part of the list above in order of length of the SMILES, largest number first.
SMILES	Env fusion inh	PABP FP inh	Rce1 inhib	CSC inhib	MT1-MMP act inh	MT1-MMP act inh RFP	eIF4H FP inh	UUG fidelity	others
Cc1n[nH]c(=O)c2c(NC(=O)CSc3nc4ccccc4c(=O)n3C(C)C)oc(C)c12	x	3	i	-6	-6	-1	-4	-14
Cc1cccc(OCCC(=O)OCC(=O)N2c3ccccc3NC(=O)C2(C)C)c1	-9	x	x	x	3	3	x	-2
O=c1c(Cc2ccc(F)cc2)c(O)ccn1Cc1ccc(F)cc1	16	2	i	-3	-12	-7	-4	x
Cc1ccc(C)n1-c1ccc(-c2ccn[nH]2)cc1	-6	-6	i	3	-8	-2	-2	3

(continued)
SMILES	Env fusion inh	PABP FP inh	Rce1 inhib	CSC inhib	MT1-MMP act inh	MT1-MMP act inh RFP	eIF4H FP inh	UUG fidelity	others
COc1cccc(NC(=O)CN(C)C(=O)c2ccccc2Sc2ccccc2C#N)c1	5	x	x	8	1	5	x	5
O=C(N/N=C/c1cccc(O)c1)c1ccccc1O	1	-4	i	-6	-2	0	-17	x
Cc1nc2sccn2c(=O)c1S(=O)(=O)NCC1CCN(Cc2ccccc2Cl)CC1	2	2	i	0	0	2	4	-14
CCOC(=O)CNC(=O)Cn1cnc2ccc(S(=O)(=O)N3CCC(C)CC3)cc2c1=O	x	5	i	-15	5	1	0	-15
Cc1ccc(S(=O)(=O)NCCSc2nnc(N)s2)cc1	x	14	i	3	-1	3	-1	x
COc1ccccc1CN1C[C@@H]2C[C@@H](c3ccc(C)cc3)N3CCC[C@@]23C1=O	11	0	i	-2	0	3	-2	-6
Cc1nn(CC(=O)NCCN2CCOCC2)c(=O)c2cc3sccc3n12	-3	10	i	-10	-4	1	-2	0
COc1cccc(COC(=O)c2sc3nc4n(c(=O)c3c2C)CCC4)c1OC	-9	x	i	-3	-6	-3	x	x
Cc1ccc(N2C(=O)N3[C@@H]4c5ccccc5OC[C@@H]4[C@@H](c4ccccc4)[C@@]3(C)C2=O)cc1	-17	x	x	-10	-5	-2	x	-19
COc1ccc(CCN(Cc2cc3cc(C)ccc3[nH]c2=O)C(=O)N2CCCC2)cc1OC	-156	-2	i	-19	3	4	-9	11
NC(=O)/C(=C\c1ccccc1)NC(=O)c1ccc(NC(=O)c2ccccc2)cc1	-8	14	i	-18	5	1	5	x
COc1ccc(S(=O)(=O)N(C)C[C@H]2Oc3ccc(NC(=O)C4CC4)cc3C(=O)N([C@H](C)CO)C[C@@H]2C)cc1	6	x	x	-28	-2	2	x	22&-13
Cc1cccc(NC(=O)CCn2ccnc2C)c1	x	-5	i	-10	1	1	1	-13
Cc1cccc(NC(=O)c2cccc(C(F)(F)F)c2)c1	4	4	i	14	3	0	4	x
N/N=C1\CCCc2nonc21	-38	-10	i	-4	1	8	-9	x
CC1(OC(=O)C2CCCC2)C(=O)C=C2C=C(c3ccsc3)N(Cc3ccco3)C=C2C1=O (stereo not given)	x	69*	i	16	-5	10	94*	-23
CCOC(=O)Cc1csc(NC(=O)CN2C(=O)c3ccccc3S2(=O)=O)n1	-34	2	x	-27	-2	5	-6	0
COC(CN(C(=O)CCl)C(C(=O)NC1CCCCC1)c1ccccc1C)OC (stereo not given)	59*	5	i	-17	-3	-1	-4	x
COC(=O)[C@H](CC(C)C)NC(=O)Nc1ccc(F)cc1	6	-4	i	1	3	5	-9	x
CC1=NN(c2ccccc2)C(=O)/C1=C/c1cccc(C)c1	3	1	i	-2	1	3	-1	-14
CC1(C(=O)NCc2ccc(Cl)cc2)CCN1C(=O)Cc1ccc(Cl)cc1Cl (stereo not given)	-10	x	x	x	2	-2	x	-21
Cc1ccc(S(=O)(=O)NCCC(=O)NCc2ccco2)cc1	-118	2	i	1	2	8	7	x
O=S(=O)(Nc1ccc2ccccc2n1)c1ccc2c(c1)CCO2	12	-8	i	4	4	0	-1	x
CCN1Cc2cc(OC)ccc2-c2ccccc2S1(=O)=O	-5	x	x	x	-1	6	x	15
CSc1ccccc1NC(=O)COC(=O)Cc1cccs1	-4	-6	i	-8	-3	0	4	x
CCN(CC#CCC1(O)c2ccccc2-c2ccccc21)C(C)C	x	1	i	12	5	-7	5	-4
COc1cccc(NC(=O)Cn2nc(Cc3cccnc3)c3ccccc3c2=O)c1	-44	-2	i	-5	3	1	0	-14
C/C(=N\N1CCN(Cc2ccc(C)cc2)CC1)c1ccco1	8	-2	i	11	3	0	-2	x
